Source: PubChem (National Center for Advancing Translational Sciences (NCATS))
VDR inhibitor = vitamin D3 receptor (human) inhibition; VDR-SRC2-3 peptide fluorescence polarization, 2 h; 0.93% of 400,000 active; Potency, µM, without a hit: max response, negative = inhibition, usual class: inhibitors; P11473; active = well fitted inhibition curve with a large enough effect; inconclusive = small, poorly fitted or top-dose-only effect, or another doubt; inactive = no such curve, though single readings can be large or run the other way; also: series mostly up to about 120 µM
Target sequence (P11473 whole entry, looked up): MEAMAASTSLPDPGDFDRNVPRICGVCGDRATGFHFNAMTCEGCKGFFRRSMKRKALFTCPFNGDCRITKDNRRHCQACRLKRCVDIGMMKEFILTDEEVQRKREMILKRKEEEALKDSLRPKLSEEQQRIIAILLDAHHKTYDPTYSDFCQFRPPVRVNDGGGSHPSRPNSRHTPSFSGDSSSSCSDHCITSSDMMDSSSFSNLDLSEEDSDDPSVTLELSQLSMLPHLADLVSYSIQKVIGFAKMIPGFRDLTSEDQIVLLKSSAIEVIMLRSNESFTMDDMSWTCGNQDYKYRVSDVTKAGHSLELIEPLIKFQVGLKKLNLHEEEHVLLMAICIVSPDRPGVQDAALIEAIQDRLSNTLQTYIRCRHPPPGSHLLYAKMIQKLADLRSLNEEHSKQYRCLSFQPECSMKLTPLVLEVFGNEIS
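Fluorescence polarization assay of small-molecule disruption of VDR binding to coregulator peptide SRC2-3. Compounds and controls pin-transferred, then read after 2 h incubation at ambient room temperature.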
Active calls of the source: *; ? = inconclusive; & = joins results of further samples. % is scaled to controls: 0 for no effect and ±100 for the full control effect; potency is read from the fitted curve at half-maximal effect. These rows are one share of the data; the hit share may differ from the screen's.

Start of the listing, in advance (17 entries):
VDR inhibitor | canonical_smiles
-24% | O=C(COC(=O)CCCNC(=O)c1ccc(Cl)cc1)Nc1cc(Cl)c(Cl)cc1Cl
2% | CCN1CCN(C(c2ccccc2Cl)c2sc3nc(-c4ccco4)nn3c2O)CC1 (stereo unspecified)
-14% | N#Cc1c(-c2ccncc2)c2c([nH]c1=S)CCCC2
-11% | CCC1CCCCN1Cc1ccc(N)cc1 (stereo unspecified)
-5% | Cc1ccc(C(C)C)c(OCc2nc(-c3nonc3N)no2)c1
7% | CC(C)Oc1ccc(CNC(=O)Cn2nc(N3CCN(c4ccccc4)CC3)ccc2=O)cc1
-20% | NC(=O)CCC(=O)N1CCCC(C(=O)c2ccc(C(F)(F)F)cc2)C1 (stereo unspecified)
? | CN(C)c1ccc(-c2cncnc2NCc2cccs2)cc1
-9% | Cc1cc(C)c(S(=O)(=O)N2CCCOC2CNC(=O)C(=O)NCc2ccncc2)c(C)c1 (stereo unspecified)
-18% | COc1cc(C2CC(=O)Oc3c2c(=O)[nH]c2ccccc32)cc(OC)c1OC (stereo unspecified)
6% | Cc1nnc(SCc2nc(-c3ccc(Cl)cc3)no2)n1-c1ccc(F)cc1
11% | CCc1ccc(NC(=O)CCCc2nnc3n(CC(C)C)c(=O)c4sccc4n23)cc1
-13%&-16% | COc1ccccc1C1CC(=O)Oc2cc(C)c(Br)c(C)c21 (stereo unspecified)
11% | Cc1ccc(S(=O)(=O)NCCCNS(C)(=O)=O)cc1
7% | CCOc1ccccc1OC(C)C(=O)Nc1ccc(S(=O)(=O)N2CCCC2)cc1 (stereo unspecified)
-10% | COc1ccc(C(=O)N/C(=C/c2ccc(Cl)cc2)C(=O)NCc2ccncc2)cc1
-24% | CC(C)(C)NC(=S)Nc1ccc(Nc2ccccc2)cc1

The list itself, repeating the preview:
VDR inhibitor | canonical_smiles
-24% | O=C(COC(=O)CCCNC(=O)c1ccc(Cl)cc1)Nc1cc(Cl)c(Cl)cc1Cl
2% | CCN1CCN(C(c2ccccc2Cl)c2sc3nc(-c4ccco4)nn3c2O)CC1 (stereo unspecified)
-14% | N#Cc1c(-c2ccncc2)c2c([nH]c1=S)CCCC2
-11% | CCC1CCCCN1Cc1ccc(N)cc1 (stereo unspecified)
-5% | Cc1ccc(C(C)C)c(OCc2nc(-c3nonc3N)no2)c1
7% | CC(C)Oc1ccc(CNC(=O)Cn2nc(N3CCN(c4ccccc4)CC3)ccc2=O)cc1
-20% | NC(=O)CCC(=O)N1CCCC(C(=O)c2ccc(C(F)(F)F)cc2)C1 (stereo unspecified)
? | CN(C)c1ccc(-c2cncnc2NCc2cccs2)cc1
-9% | Cc1cc(C)c(S(=O)(=O)N2CCCOC2CNC(=O)C(=O)NCc2ccncc2)c(C)c1 (stereo unspecified)
-18% | COc1cc(C2CC(=O)Oc3c2c(=O)[nH]c2ccccc32)cc(OC)c1OC (stereo unspecified)
6% | Cc1nnc(SCc2nc(-c3ccc(Cl)cc3)no2)n1-c1ccc(F)cc1
11% | CCc1ccc(NC(=O)CCCc2nnc3n(CC(C)C)c(=O)c4sccc4n23)cc1
-13%&-16% | COc1ccccc1C1CC(=O)Oc2cc(C)c(Br)c(C)c21 (stereo unspecified)
11% | Cc1ccc(S(=O)(=O)NCCCNS(C)(=O)=O)cc1
7% | CCOc1ccccc1OC(C)C(=O)Nc1ccc(S(=O)(=O)N2CCCC2)cc1 (stereo unspecified)
-10% | COc1ccc(C(=O)N/C(=C/c2ccc(Cl)cc2)C(=O)NCc2ccncc2)cc1
-24% | CC(C)(C)NC(=S)Nc1ccc(Nc2ccccc2)cc1
-11% | CNC(=O)NC(=O)C(C)OC(=O)c1c(C)noc1C (stereo unspecified)
4% | Cc1cc([N+](=O)[O-])nn1Cc1ccc(C(=O)N/N=C/c2ccc(N(C)C)cc2)cc1
-1% | COc1ccc(CNC(=O)c2c(C)cc(=O)oc2C)cc1
-7% | CCC(=O)Nc1cccc(NC(=S)NC(=O)Cc2ccccc2)c1
-21% | Cc1ccc(S(=O)(=O)N2CCC(=O)N(CCOCc3cccc(C)c3)CC2)cc1
-14% | Nc1nc(Nc2ccccc2)nc(N2CCCC2)c1[N+](=O)[O-]
17% | N/C(=N\OC(=O)c1ccccc1)C(C(=O)NOC(=O)c1ccccc1)C1CCCCC1 (stereo unspecified)
-2% | Cc1ccc(NS(=O)(=O)c2cccc(C(=O)N3CCN(c4ncccn4)CC3)c2)cc1
-2% | CS(=O)(=O)c1ccc(Cl)c(NC(=O)C2CCCCN2S(=O)(=O)c2ccccc2)c1 (stereo unspecified)
? | Cc1ccccc1N1CCN(S(=O)(=O)c2cccs2)CC1
-4% | COc1ccc(-c2n[nH]c(=S)n2Cc2ccco2)cc1
5% | COc1ccc(CCNC(=O)C2C3CCC(C3)C2C(=O)O)cc1OC (stereo unspecified)
-3% | COc1ccc(C2CC(=O)N(CC(=O)Nc3ccc(C)c(Cl)c3)c3ccccc3S2)cc1OC (stereo unspecified)
-4% | Cc1ccc(N2CC(C(=O)Nc3nnc(SCc4ccccn4)s3)CC2=O)cc1 (stereo unspecified)
19% | CCC(C)[C@H](NC(=O)Nc1ccc(Oc2ccccc2)cc1)C(=O)O (stereo partly specified)
-5% | CCN(CC)CCN1C(=O)c2oc3ccc(F)cc3c(=O)c2C1c1ccncc1 (stereo unspecified)
-20% | Cc1ccc(NS(=O)(=O)c2ccc3c(c2)NC(=O)CO3)c(C)c1
-18% | Clc1ccc(-c2noc(COc3ccccc3)n2)cc1
6% | CCCCNC(=O)CCn1c(=O)c2ccccc2n(Cc2ccc(F)cc2)c1=O
-17% | Cc1ccc(NC(=O)CN2C(=S)NC(C)(C)CC2C)cc1Cl (stereo unspecified)
-11% | COc1cc(C)c(NC(=O)C(=S)N2CCCC2)cc1C
-16% | CCC(=O)c1ccc(OC)c(OC)c1O
2% | O=C(Nc1cc(S(=O)(=O)N2CCOCC2)ccc1N1CCCC1)c1cnccn1
-8% | CN(C)C1=NC[C@H](Cc2ccccc2)N1CC1CCC(C(C)(C)C)CC1 (stereo partly specified)
-8% | O=C(NNC(=O)C12CC3CC(CC(C3)C1)C2)c1ccccc1F
9% | COc1ccc(CCNC(=O)C(=O)NCC2OCCN2S(=O)(=O)c2ccc(F)cc2)cc1 (stereo unspecified)
-14% | O=C(Nc1ccc2oc(-c3ccccc3)nc2c1)c1ccncc1
-27% | Cc1cc(C(=O)N/N=C/c2cc(Br)cc([N+](=O)[O-])c2O)c2ccccc2n1
-20% | CCOCCn1c(=O)c2c(nc3n2CC(C)CN3Cc2ccccc2)n(C)c1=O (stereo unspecified)
-18% | COc1cccc(NC(=S)NC(=O)c2cncc(Br)c2)c1
-1% | CC(=O)N(/C=C1\SC(=S)N(c2ccccc2)C1=O)c1ccccc1
-2% | CCn1cc(C(=O)NCCc2ccc(Cl)cc2)c(=O)c2cc(S(=O)(=O)N(C)C3CCCCC3)ccc21
-9% | CCCCC(CC)C(=O)NCc1ccc(F)cc1 (stereo unspecified)
-5% | CCOC(=O)c1ccccc1NC(=S)N1CCC(N2CCCCC2)CC1
-12% | O=C(CSc1nnc(CNc2ccccc2)o1)N1CCCc2ccccc21
-2% | COc1ccc(C)cc1NC(=O)CSc1nc(=O)[nH]c2c1CCCC2
4% | COc1cc(C(=O)NNC(=O)COc2ccccc2Cl)ccc1OCC(=O)N1CCOCC1
-22% | COc1cc2c(c(OC)c1O)C(=O)CO2
-4% | CC(=O)Nc1ccc(NC(=O)[C@@H]2CCCN2S(=O)(=O)c2ccc3c(c2)OCCO3)cc1
4% | N#CCCN(C(=O)COC(=O)c1cccc(S(=O)(=O)N2CCCCCC2)c1)c1ccc(F)cc1
10% | CCn1cnc2c(oc3ccccc32)c1=O
12% | CCN(C(=O)COC(=O)CSc1ccc(F)cc1)c1c(N)n(Cc2ccccc2)c(=O)[nH]c1=O
-3% | CC(=O)c1cccc(NC(=O)CSc2nnc3ccc(-c4ccc(C)cc4)nn23)c1

(continued)
VDR inhibitor | canonical_smiles
-12% | CN(CCOc1ccc(Cl)cc1)C(=O)Cc1ccc(S(=O)(=O)N2CCOCC2)s1
17% | CCN(CC)CCN(C(=O)Cn1nnc(-c2ccc(C)o2)n1)C(C(=O)NC1CCCC1)c1ccc(F)cc1 (stereo unspecified)
-1% | COc1cc2c(cc1OC)CN(S(=O)(=O)c1ccc(Cl)nc1)CC2
-2% | C=CCOC(=O)c1ccc(-n2cnc(C)n2)nc1
18% | O=C(Nc1ccc(C(=O)N2CCOCC2)cc1)c1ccccc1
-15% | CC(=O)n1cc([C@@H]2C=C(C(=O)O)O[C@H](OCc3ccc(CO)cc3)C2)c2ccccc21
-2% | O=C(COC(=O)COc1ccccc1)NC12CC3CC(CC(C3)C1)C2
4% | O=C(NCc1ccc(Cl)cc1Cl)C(=O)N1CCCCC1
10% | CSc1ccc(/C=C/C(=O)c2ccc(NC(=O)Cc3ccccc3)cc2)cc1
2% | O=C(c1cccc(F)c1)N1CCC[C@@]2(CCN(c3ccncc3)C2)C1
1% | CN1CCN(c2nc3ccccc3nc2NS(=O)(=O)c2ccc(Br)cc2)CC1
1% | CCOC(=O)c1cnn2c(C(F)(F)F)cc(-c3cn(C)nc3C)nc12
-13% | COc1ccc(C(=O)Nc2cccc(S(=O)(=O)N(C)C)c2)cc1S(=O)(=O)N1CCOCC1
20% | O=C(NNS(=O)(=O)c1ccc(Br)cc1)c1ccccc1-n1cccc1
0% | CCSc1nc2sc3c(c2c(=O)[nH]1)CCCC3
4% | COCCN(C(=O)COC(=O)/C=C/c1ccc(SC)cc1)c1c(N)n(Cc2ccccc2)c(=O)[nH]c1=O
14% | Cc1ccc2[nH]c3c(=O)n(CCN4CCOCC4)cnc3c2c1
-10% | O=C(NCc1ccco1)c1ccc2c(c1)OCCO2
6% | COc1ccc(-c2ccnc3cc(C(=O)O)nn23)cc1
3% | COc1cccc(CNc2ccc3[nH]c(=O)[nH]c3c2)c1OCc1ccc(F)cc1
-5%&21% | O=C(CSc1nnc(Cc2csc(Nc3cccc(Cl)c3)n2)o1)N1CCc2ccccc21
1% | CCOC(=O)c1c(CN2CCN(C)CC2)oc2ccc(O)cc12
16% | C=C(C)Cn1c(SCC(=O)Nc2ccccc2C)nc2sc3c(c2c1=O)CCCC3
-4% | O=C(N/N=C/c1cccc(F)c1)c1c(O)c2c([nH]c1=O)CCCC2
4% | CC(C)NC(=O)CCc1nc2cccnc2n1-c1ccccc1
-24% | Oc1c(Br)cc(Br)cc1CNc1cnc2ccccc2c1
-2% | COc1ccccc1NC(=O)NCCN1C(=O)C2C3C=CC(C3)C2C1=O (stereo unspecified)
6% | Brc1ccccc1OCCNCc1ccccc1
6% | CCOC(=O)c1[nH]c2ccccc2c1NC(=O)c1ccc(S(=O)(=O)N(C)C)cc1
-24% | O=C(NNc1ccc(Cl)cc1)C1CCC1
6% | O=C(NCCc1ccccc1)c1cnc2ccccc2n1
7% | Cc1c(NC(=O)c2cc3nc(-c4ccccc4)cc(C)n3n2)c(=O)n(-c2ccccc2)n1C
-1% | COc1ccccc1CCNC(=O)c1ccc(Br)s1
14% | Cc1ccc(C)c(OCc2cc(C(=O)NC3CCN(Cc4ccccc4)CC3)no2)c1
-5% | CC(C)CCCN1CCN=C1Nc1ccccc1
? | Cc1ccc(NC(=O)CN2C(=O)N/C(=C/c3ccc(C)o3)C2=O)cc1
3% | Cc1ccc(S(=O)(=O)NCCC(=O)NCC(c2cccs2)N(C)C)cc1C (stereo unspecified)
? | COc1cc(OC)c(NS(=O)(=O)c2ccc3c(c2)NC(=O)CO3)cc1Cl
0% | CCOC(=O)c1[nH]c(C)c(CCC(=O)N2CCN(c3cccc(OC)c3)CC2)c1C
2% | COc1ccc(N2CCN(C(=O)CSc3nnc(C)c(=O)[nH]3)CC2)cc1
-15% | CC(C)(C)C(=O)N1N=C(c2ccc(NS(C)(=O)=O)cc2)CC1c1cccs1 (stereo unspecified)
-5% | CC(C)(C)NC(=O)CSc1nc2ccc(Nc3nc(N4CCOCC4)nc(N4CCOCC4)n3)cc2s1
1% | Cc1ccc(C2=NC(C)(C)N=C2SCC(=O)Nc2ccc(Cl)cc2)cc1
-1% | Cc1ccc(-c2csc(NC(=O)CSc3ncn(-c4ccccc4)n3)n2)cc1
-2% | CCn1ncc(/C=N\NC(=O)Cc2ccc([N+](=O)[O-])cc2)c1C
7% | Cc1ccccc1CN1c2ccccc2-c2nc(SCC(=O)c3ccccc3)ncc2S1(=O)=O
-2% | O=C(CCS(=O)(=O)c1ccccc1)Nc1cccc(-c2nc3ccccc3s2)c1
13% | O=C1CN(C(=O)c2ccccc2F)C(c2ccccc2)c2cc(F)ccc2N1 (stereo unspecified)
-9% | O=C(NCC(c1ccco1)N1CCN(c2ccccc2)CC1)c1ccco1 (stereo unspecified)
4% | CCS(=O)(=O)N1CCC(C(=O)NCCN2CCOCC2)CC1
7% | O=C(CC1C(=O)N(c2ccc(F)cc2)C(=O)N1Cc1ccc2c(c1)OCO2)Nc1ccc(Cl)cc1 (stereo unspecified)
-12% | Cc1ccc(NCc2ccco2)cc1C
23% | COc1ccccc1NC(=O)C1CC(=O)N(c2ccc(F)cc2)C1 (stereo unspecified)
-11% | CN(Cc1ccc(-n2cccn2)cc1)Cc1cn(C)nc1-c1ccccc1F
-4% | COc1cc(NC(=O)CSc2nc(C)cc(C)n2)cc(OC)c1OC
2% | COC(=O)c1sc2nc3c(cc2c1N)COC(C)(C)C3
-3% | COc1ccc(NC(=O)c2ccsc2NC(C)=O)cc1
10% | COc1ccccc1NC(=O)CSc1nnc(CSc2nc(C)cc(C)n2)o1
-5% | O=S(=O)(c1ccc(NCCCO)nc1)N1CCOCC1
-6% | COC(=O)C(C(=O)OC)C1C=CCN(C(C)=O)C1 (stereo unspecified)

(cont.)
VDR inhibitor | canonical_smiles
3% | O=S(=O)(NCCc1ccncc1)c1ccc(S(=O)(=O)N2CCCCCC2)cc1
-11% | CCCCCOc1ccc(OC(=O)c2ccncc2)cc1
-2% | CC(NCC(O)COc1ccccc1)C1COc2ccccc2O1 (stereo unspecified)
11% | COC(=O)CCC(=O)NNC(=O)c1cccc(Cl)c1
-6% | Cn1c2ccccc2c2c(C(=O)N3CCN(c4ccc(F)cc4)CC3)cn(C3CCCCC3)c(=O)c21
